# Cruzain Triton: cruzain (T. cruzi) inhibition with detergent. AID 1478. Potency, µM, for the others: max response, negative = inhibition, usual class: inhibitors. P25779. 200,000 tested, 0.43% active. purified cruzain, Z-FR-AMC fluorescence, 0.01% Triton;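 note: plate controls were neutral wells for no effect and buffer without enzyme for full effect; nearly all actives have a fitted effect of over 40% in size; top concentration of the series not given in the record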
# Target sequence (P25779 123-467 limits assumed): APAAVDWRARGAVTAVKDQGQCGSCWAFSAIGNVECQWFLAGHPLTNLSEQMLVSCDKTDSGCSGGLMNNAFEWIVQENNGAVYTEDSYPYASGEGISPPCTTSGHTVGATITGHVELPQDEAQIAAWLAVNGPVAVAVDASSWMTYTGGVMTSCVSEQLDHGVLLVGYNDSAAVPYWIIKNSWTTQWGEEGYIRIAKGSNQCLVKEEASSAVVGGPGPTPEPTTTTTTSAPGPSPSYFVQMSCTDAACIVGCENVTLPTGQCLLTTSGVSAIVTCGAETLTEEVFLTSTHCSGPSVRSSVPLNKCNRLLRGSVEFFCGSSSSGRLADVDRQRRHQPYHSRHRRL
#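 15 min RT preincubation of 1.5 nM cruzain with compound, then 2 uM Z-FR-AMC added; kinetic AMC fluorescence, 60 s delta. Triton X-100 0.01%, pH 5.5.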
# NS1 function inh: blocks influenza NS1 protein function; S. cerevisiae slowed by influenza A NS1, growth recovery by OD600; Potency, µM (top dose mostly 46.1 µM), inactives show at the top dose activity, positive = more growth; 270,000 tested, 0.4% active; active means well fitted rising curve with a large enough effect; inconclusive means small, poorly fitted or top-dose-only effect; inactive means no such curve, though single readings can be large or run the other way; note: nearly all actives have a fitted effect of over 50% in size
#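 Compounds were scored for reversing the slow growth caused by influenza A NS1 in S. cerevisiae, measured by optical density at 600 nm. Assay medium contained 2% galactose at pH 6.0; NS1-free yeast of the same strain were the positive control.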
# SARS PLP yeast: blocks SARS-CoV papain-like protease in a yeast assay; AID 485353; 330,000 tested, 0.19% active; S. cerevisiae expressing SARS-CoV PLpro, growth rescue; control for the full effect not named in the record; Potency, µM (highest dose often 32.9 µM), without a hit: at the top dose activity, positive = growth rescue; active means well fitted rising curve with a large enough effect; inconclusive means small, poorly fitted or top-dose-only effect; inactive means no such curve, though single readings can be large or run the other way; note: 0% is about no effect; nearly all actives have a fitted effect of over 55% in size; growth read by luminescence after 48 h
# RE007 growth inh: less growth of the S. pombe RE007 Vpr strain; 360,000 tested, 0.21% active; S. pombe RE007 Vpr strain, BacTiter-Glo ATP luminescence, 24 h; control for the full effect not named in the record; Potency, µM (titrated, usually from 92.2 µM), inactives show at the top dose activity change, negative = less growth; active = well fitted falling curve with a large enough effect; inconclusive = small, poorly fitted or top-dose-only effect; inactive = no such curve, though single readings can be large or run the other way;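 note: % is set by controls: 0 for no effect and ±100 for the full control effect; nearly all actives have a fitted effect of over 50% in size; the assay follows cell death caused by Vpr and the record does not say whether a fall means rescue or toxicity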
#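 Fission yeast RE007 carrying one integrated HIV-1 vpr copy, seeded at OD 0.01 in PMG+AL medium with 23 nL pinned compound. Grown 24 h at 30 degrees; viability read by BacTiter-Glo luminescence after 5 min.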
# Marburg entry inh: Marburg virus entry inhibition. Marburg virus pseudotyped entry inhibition, cell reporter; control for the full effect not named in the record; about a third of the inactives were read at about 46 µM. Potency, µM (titrated, usually from 37.8 µM), for the others: top-dose activity change, negative = inhibition, usual class: inhibitors. 300,000 tested, 1.8% active; active = well fitted inhibition curve with a large enough effect; inconclusive = small, poorly fitted or top-dose-only effect, or effect the other way; inactive = flat fitted curve, though single readings scatter; tested in HEK293 cells; about a fifth of its hits are not listed in these tables; note: % is set by controls: 0 for no effect and ±100 for the full control effect; luciferase read-out
# 2A StopGo: FMDV 2A StopGo reporter, luciferase signal. human cells with a luciferase reporter of 2A StopGo recoding; control for the full effect not named in the record. 410,000 tested, 1.2% active. Potency, µM (series often up to 57.9 µM), for inactives: at the top dose signal change, negative = less light; active = well fitted falling curve with a large enough effect; inconclusive = small, poorly fitted or top-dose-only effect; inactive = no such curve, though single readings can be large or run the other way; tested in HEK293T cells; note: % is set by controls: 0 for no effect and ±100 for the full control effect; nearly all actives have a fitted effect of over 45% in size; luciferase light after 4 h
# Lassa entry inh: blocks Lassa virus binding to or entry into cells | Lassa virus pseudotype entry inhibition, cell reporter; control for the full effect not named in the record | Potency, µM (series often up to 37.9 µM), for the others: at the top dose activity change, negative = inhibition, actives largely listed as inhibitors | 300,000 tested, 1.2% active | AID 540256; active means well fitted inhibition curve with a large enough effect; inconclusive means small, poorly fitted or top-dose-only effect, or effect the other way; inactive means flat fitted curve, though single readings scatter; tested in HEK293 cells; note: % is set by controls: 0 for no effect and ±100 for the full control effect; nearly all actives have a fitted effect of over 50% in size; luciferase read-out
# Cruzain noTriton: inhibitors of Trypanosoma cruzi cruzain without detergent | AID 1476 | 200,000 tested, 2.3% active | P25779 | purified cruzain, Z-FR-AMC fluorescence, no detergent | Potency, µM, for inactives: max response, negative = inhibition, actives largely listed as inhibitors;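 note: plate controls were enzyme without inhibitor for no effect and buffer without enzyme for full effect; nearly all actives have a fitted effect of over 40% in size; top concentration of the series not given in the record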
#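 Purified cruzain at 1.5 nM, pre-incubated 15 min with compound at room temperature in 100 mM sodium acetate pH 5.5, 5 mM DTT, 0.00005% Triton X-100. Reaction started with 2 uM Z-FR-AMC; AMC fluorescence increase over 60 s gives rate.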
# The depositor's hits bear a star; ? = inconclusive; . = no result given; & = joins results of further samples; [ ] = another dose, or the depositor's remark. Unless noted, calls come from the whole dose curve; as a rule, active = well fitted curve in the direction sought with a large enough effect; inconclusive = small, poorly fitted or top-dose-only effect, or another doubt; inactive = no such curve, though single readings can be large; an effect the other way counts as inactive or inconclusive. Potency is the fitted concentration of half-maximal effect.
SMILES,Cruzain Triton,NS1 function inh,SARS PLP yeast,RE007 growth inh,Marburg entry inh,2A StopGo,Lassa entry inh,Cruzain noTriton
COCCNC(=O)/C(C#N)=C/c1cccc(/C=C(\C#N)C(=O)NCCOC)c1,1.4%,-32.1%,5.3%,-0.6%,?,14.1µM*,?,24.9%
O=[N+]([O-])c1ccc(NCc2ccccc2N2CCC(CO)CC2)nc1,.,-2.7%,-2.0%,-10.1%,.,-20.6%,.,.
Cc1ccc(N(CC(=O)NCc2ccc(F)cc2)C(=O)c2snc(C(N)=O)c2N)cc1C,.,6.6%,1.6%,3.5%,-5.8%[46.1 µM],-8.5%,.,.
Nn1c(Cc2ccccc2)nc2cc(Cl)ccc2c1=O,.,13.6%,-7.3%,1.9%,.,-21.2%,.,.
CCCCN(C)S(=O)(=O)c1ccc(C(=O)Nc2ccc(-c3nc4ccc(C)cc4s3)cc2)cc1,-0.7%,.,.,.,.,15.6%,6.6%[46.1 µM],6.0%
COc1ccc(S(=O)(=O)N(C)c2ccc(C(=O)Nc3ccccc3C(=O)N3CCOCC3)cc2)cc1,.,0.6%,-1.6%,-2.5%,23.5%,-29.1%,-1.6%,.
O=C(COC(=O)Cc1c(Cl)cccc1Cl)Nc1ccc2[nH]c(=O)[nH]c2c1,.,.,3.0%,4.6%,?,-25.7%,11.1%,.
CCOC(=O)c1oc2ccc(S(=O)(=O)n3nc(-c4ccc(Cl)cc4)cc3N)cc2c1C,1.9%,-2.9%,5.0%,2.4%,1.5%,?,.,12.6µM*
CCC(Sc1nc2cc3c(cc2c(=O)n1Cc1ccco1)OCO3)C(=O)NCCOC (configuration not stated),0.3%,4.7%,0.5%,-2.3%[3.69 µM],16.4%,-24.5%,1.7%,-1.0%
COc1ccc(OC)c(S(=O)(=O)Nc2c(NC3CCCCC3)c3ccccc3oc2=O)c1,.,8.1%,5.9%,1.4%,-19.1%[46.1 µM],26.7%,-6.6%[46.1 µM],.
O=C(O)c1cc(N/C(=N\S(=O)(=O)c2ccc(F)cc2)c2ccccc2)ccc1O,.,.,-1.4%,-27.5%,10.1%,-7.5%,4.7%,.
S=C(NCCN1CCOCC1)N1CCN(c2cccc(Cl)c2)CC1,.,-4.0%,8.5%,-13.9%,?,?,5.4%,.
CCc1[nH]nc2c1C(c1cccc(OC(=O)N3CCOCC3)c1)C(C#N)=C(N)O2 (configuration not stated),-1.1%,-1.8%,-8.9%,-0.2%,19.6%,.,5.6%,3.7%
O=C(COC(=O)c1ccc([N+](=O)[O-])cc1)Nc1cccnc1Cl,.,.,.,-8.5%,?,-16.5%,15.5%,.
O=C(CNS(=O)(=O)c1ccc(Br)cc1)NC1CCCC1,.,8.7%,3.6%,-12.6%,-2.1%,-8.0%,9.1%,.
CCc1ccc(NC(=O)CCN2C(=O)c3cccnc3C2=O)cc1,3.6%,-3.7%,4.1%,3.4%,-2.6%[46.1 µM],-4.6%,-1.2%,2.5%
COc1cccc(-c2cc(C(=O)Nc3ccc(OC)cc3OC)no2)c1,-2.0%,.,.,.,-11.2%[46.1 µM],-3.6%,16.5%[46.1 µM],-4.9%
CCS(=O)(=O)N1Cc2ccccc2CC1C(=O)N(C)CC(=O)Nc1ccc(F)c(F)c1F (configuration not stated),.,.,-4.1%,-12.8%,-28.8%,-13.3%,-18.8%,.
CCOc1ccc2[nH]c(=O)c(CN(CCc3ccccc3)C(=O)N3CCOCC3)cc2c1,-0.8%,13.5%,29.4%,-10.4%,?,-21.1%,0.3%,28.0%
Cc1c(C(=O)NCCN2CCOCC2)oc2ccccc12,2.6%,6.5%,-0.8%,45.3%,?,37.5%[activator],3.7%,-15.2%
O=[N+]([O-])c1ccc(Sc2cccc3cccnc23)cc1,-8.0%,-5.9%,-3.6%,6.1%,-18.5%,.,7.2%,-4.7%
COc1ccc(S(=O)(=O)N2CCN=C2SCc2cccc(F)c2)cc1,.,-19.6%,0.9%,-19.1%,-21.9%[46.1 µM],-26.9%,-32.5%[46.1 µM],.
O=C(/C=C/c1ccccc1Cl)N(c1ccccn1)C1CCCCC1,-6.3%,-45.1%,-11.0%,-20.5%,19.4%,7.1%,1.0%,8.1%
CC1CCC(NC(=O)c2ccc(NC(=O)CC3SC(N4CCCC4)=NC3=O)cc2)CC1 (configuration not stated),.,.,-2.8%,4.6%,?,10.5%,2.6%,.
Clc1cccc(Cl)c1/C=C/c1ccn[nH]1,.,-44.5%,-4.4%,3.3%,.,31.3%[activator],.,.
Cc1ccc(/C=N/NC(=O)CSc2nnc(-c3ccc(Cl)cc3)n2-c2ccccc2)o1,-9.2%,2.9%,-0.3%,11.9%,?,-8.7%,?,4.9%
COc1cc(C2c3[nH]c4ccccc4c3C[C@@H]3C(=O)N(Cc4ccco4)CC(=O)N23)cc(OC)c1OC (some centres not stated),.,8.8%,1.7%,-11.5%,-17.3%,-16.1%,?,.
O=S(=O)(NC1c2cccc3cccc(c23)C1N1CCNCC1)c1ccccc1 (configuration not stated),5.3%,?,2.6%,-0.2%,?,-8.6%,4.8%,-17.9%
CCOC(=O)Oc1ccc2c(c1)C(C)=CC(C)(C)N2C(=O)OCC,-11.5%,-18.0%,-4.7%,-16.1%,-29.8%&-29.8%,-21.0%,2.0%,-0.2%
COC(=O)c1cc(OC)nc2ccc(Br)cc12,.,-1.7%,-0.8%,3.5%,.,-15.7%,.,.
NC(=O)c1ccc(Oc2ccc(Cl)cc2)c([N+](=O)[O-])c1,.,1.5%,-1.5%,-9.1%,.,-6.6%,.,.
CCOC(=O)C(=CNc1ccccc1Cl)C(=O)OCC,.,-60.4%,3.4%,14.4%,.,-2.4%,.,.
CCOc1ccc(-c2nc(CSCC(=O)NCCc3ccc(OCC)c(OCC)c3)c(C)o2)cc1,-9.9%,.,.,.,.,0.0%,?,?
COc1ccc(CN2CCN(S(=O)(=O)c3ccc(C)cc3)CC2)cc1OC,.,.,.,-2.3%,-9.6%,?,-7.9%,.
O=C(NC1CCCCC1)NS(=O)(=O)c1ccc2c(c1)CCC2,.,.,.,6.3%,2.7%,61.7%[activator],7.5%[46.1 µM],.
Cc1ccsc1C(=O)NNC(=O)CCN1CCN(c2ccccc2)CC1,.,.,2.5%,-3.2%,7.4%,-6.1%,?,.
CC1CCN(CCNC(=O)CN(C)S(=O)(=O)c2cccc3nsnc23)CC1,1.5%,-3.7%,-0.1%,-0.9%,18.0%,11.7%,-1.3%,-0.2%
Cc1c(Cl)cccc1NC(=O)c1cccnc1,.,-2.8%,0.6%,-3.8%,.,11.5%,.,.
CC1CCCN(c2nc3nonc3nc2Nc2ccccc2F)C1 (configuration not stated),.,5.0%,1.3%,8.7%,7.7%[46.1 µM],-26.4%,-1.7%[46.1 µM],.
CCn1nc(-c2ccccc2)c(-c2ccccc2)c(C(=O)Nc2ccc(NC(C)=O)cc2)c1=O,-4.2%,.,.,.,?,0.0%,-4.4%[46.1 µM],?
COc1ccc2[nH]c(=O)c(CN(Cc3cccs3)C(=S)Nc3ccccc3)cc2c1,-2.4%,2.1%,15.3%,.,2.0%,.,2.5%,-27.8%
COc1ccccc1N1CCN(Cc2cccc(Br)c2)CC1,.,-26.9%,2.4%,-0.3%,.,-22.8%,.,.
O=C(NC(=S)NCC1CCCO1)c1cccc([N+](=O)[O-])c1 (configuration not stated),-4.0%,14.2%,1.9%,.,0.3%,37.5%[activator],1.8%,5.8%
CCOC(=O)c1c(Oc2ccc(OC)cc2)nnc(-c2ccccc2)c1-c1ccccc1,-5.1%,.,.,.,-17.5%[46.1 µM],?,-16.9%[46.1 µM],?
CN(CC(=O)Nc1ccc(N2CCOCC2)cc1)C(=O)c1cc(S(=O)(=O)N(C)C)ccc1Cl,.,-0.7%,-2.7%,26.5%,0.3%,17.2%,-8.1%,.
COc1ccc(NC(=O)C2CC(=O)N(C)C(=Nc3ccc4c(c3)OCO4)S2)cc1 (configuration not stated),0.2%,-1.0%,3.0%,6.1%,-4.8%&-7.5%,.,?,-10.4%
COc1ccccc1NC(=O)CSc1nc2sc(C)c(C)c2c(=O)n1Cc1ccco1,-5.6%,-13.0%,-17.1%,3.5%,?,7.2%,4.1%,?
C[N+](C)(CC#Cc1ccccc1)CC(=O)c1ccccc1,-1.6%,-7.2%,-4.3%,-11.6%,4.6%,0.0%,-16.2%,-11.6%
COc1ccccc1N1CCN(C(=O)CCC(=O)N2CCN(c3ccccc3OC)CC2)CC1,.,0.8%,1.8%,-5.2%,.,?,.,.
Cc1ccc(N(C(=O)c2ccc(Br)o2)C2C=CS(=O)(=O)C2)cc1 (configuration not stated),2.2%,?,6.2%,-0.8%,.,-29.2%,.,-12.8%
Cn1c(=O)oc2cc(S(=O)(=O)N3CCCC(C(=O)NCCc4ccc(Cl)cc4)C3)ccc21 (configuration not stated),-0.2%,.,.,.,0.4%[46.1 µM],0.0%,-3.7%[46.1 µM],-5.8%
COc1cc(/C=C(\C#N)C(=O)c2c[nH]c3ccccc23)cc(OC)c1O,.,.,1.8%,2.7%,?,17.8%,15.4%,.
O=C(CC1N=C2c3ccccc3N=C(SCc3ccccc3F)N2C1=O)NCCc1ccccc1 (configuration not stated),-7.8%,.,.,.,.,0.0%,2.5%[46.1 µM],0.8%
CC(=O)c1ccc(OCC(O)CN2C(C)CCCC2C)cc1 (configuration not stated),-6.2%,-1.5%,-5.0%,-5.4%,.,-13.3%,.,-19.5%
CC(=O)C1C(c2ccccc2)c2c(noc2C)CC1(C)O (configuration not stated),.,2.7%,1.1%,3.8%,.,-21.3%,.,.
c1ccc2c3c(c(CN4CCCCC4)cc2c1)COC3,.,-3.3%,2.4%,7.4%,2.3%,-2.7%,11.9%,.

# Screens as filed in PubChem.
